Screening data deposited in PubChem BioAssay by National Center for Advancing Translational Sciences (NCATS).
NS1 function inh = qHTS Assay for Inhibitors of Influenza NS1 Protein Function; S. cerevisiae slowed by influenza A NS1, growth recovery by OD600; Potency, µM (titrated, usually from 46.1 µM), for inactives: at the highest dose activity, positive = more growth; 270,000 tested, 0.4% active; active means well fitted rising curve with a large enough effect; inconclusive means small, poorly fitted or top-dose-only effect; inactive means no such curve, though single readings can be large or run the other way; further: nearly all actives have a fitted effect of over 50% in size
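Read-out: OD600 growth recovery of NS1-expressing budding yeast. Cells grown overnight at 30C in -URA glucose medium, washed, resuspended and diluted 1:100 in 2% galactose assay medium, pH 6.0. Same strain lacking NS1 served as positive control.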
Marburg entry inh = qHTS for inhibitors of binding or entry into cells for Marburg Virus. 300,000 tested, 1.8% active. Potency, µM (series often up to 37.8 µM), for inactives: at the highest dose activity change, negative = inhibition, hits mostly inhibitors. AID 540276, 2011. Marburg virus pseudotyped entry inhibition, cell reporter; control for the full effect not named in the record; about a third of the inactives were read at about 46 µM; active = well fitted inhibition curve with a large enough effect; inconclusive = small, poorly fitted or top-dose-only effect, or effect the other way; inactive = flat fitted curve, though single readings scatter; tested in HEK293 cells; about a fifth of its hits are not listed in these tables; further: on the % scale 0 is the no-effect control and ±100 the full control effect; luciferase read-out
2A StopGo = High Throughput Screening for Foot and Mouth Disease Virus Antivirals. human cells with a luciferase reporter of 2A StopGo recoding; control for the full effect not named in the record. Potency, µM (doses to about 57.9 µM), inactives show at the highest dose signal change, negative = less light. 410,000 tested, 1.2% active; active = well fitted falling curve with a large enough effect; inconclusive = small, poorly fitted or top-dose-only effect; inactive = no such curve, though single readings can be large or run the other way; tested in HEK293T cells; further: on the % scale 0 is the no-effect control and ±100 the full control effect; nearly all actives have a fitted effect of over 45% in size; luciferase light after 4 h
RE007 growth inh = qHTS Assay for Inhibitors of the HIV-1 protein Vpr; S. pombe RE007 Vpr strain, BacTiter-Glo ATP luminescence, 24 h; control for the full effect not named in the record; Potency, µM (doses to about 92.2 µM), for inactives: top-dose activity change, negative = less growth; 360,000 tested, 0.21% active; active = well fitted falling curve with a large enough effect; inconclusive = small, poorly fitted or top-dose-only effect; inactive = no such curve, though single readings can be large or run the other way;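 further: on the % scale 0 is the no-effect control and ±100 the full control effect; nearly all actives have a fitted effect of over 50% in size; the assay follows cell death caused by Vpr and the record does not say whether a fall means rescue or toxicity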
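Fission yeast RE007 carrying one integrated HIV-1 vpr copy, seeded at OD 0.01 in PMG+AL medium with 23 nL pinned compound. Grown 24 h at 30 degrees; viability read by BacTiter-Glo luminescence after 5 min.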
LASV entry inh = qHTS for Inhibitors of binding or entry into cells for Lassa Virus. Lassa virus pseudotype entry inhibition, cell reporter; control for the full effect not named in the record. AID 540256, 2011. Potency, µM (highest dose often 37.9 µM), for inactives: at the highest dose activity change, negative = inhibition, usual class: inhibitors. 300,000 tested, 1.2% active; active means well fitted inhibition curve with a large enough effect; inconclusive means small, poorly fitted or top-dose-only effect, or effect the other way; inactive means flat fitted curve, though single readings scatter; tested in HEK293 cells; further: on the % scale 0 is the no-effect control and ±100 the full control effect; nearly all actives have a fitted effect of over 50% in size; luciferase read-out
Cruzain noTriton = qHTS Assay for Promiscuous and Specific Inhibitors of Cruzain (without detergent); Cruzipain (Trypanosoma cruzi), P25779; 200,000 tested, 2.3% active; purified cruzain, Z-FR-AMC fluorescence, no detergent; Potency, µM, for inactives: max response, negative = inhibition, usual class: inhibitors; AID 1476, 2009;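 further: plate controls were enzyme without inhibitor for no effect and buffer without enzyme for full effect; nearly all actives have a fitted effect of over 40% in size; top concentration of the series not given in the record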
Target sequence (P25779 123-467 limits assumed): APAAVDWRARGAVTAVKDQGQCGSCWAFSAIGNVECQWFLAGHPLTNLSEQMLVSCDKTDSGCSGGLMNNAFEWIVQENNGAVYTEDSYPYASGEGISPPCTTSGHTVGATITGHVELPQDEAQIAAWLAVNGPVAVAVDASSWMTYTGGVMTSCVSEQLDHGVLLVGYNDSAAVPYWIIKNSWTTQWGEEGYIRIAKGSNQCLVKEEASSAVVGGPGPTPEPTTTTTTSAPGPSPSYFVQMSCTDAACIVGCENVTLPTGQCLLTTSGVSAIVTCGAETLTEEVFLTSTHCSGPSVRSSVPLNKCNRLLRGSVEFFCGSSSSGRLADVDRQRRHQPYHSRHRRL
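Purified cruzain at 1.5 nM, pre-incubated 15 min with compound at room temperature in 100 mM sodium acetate pH 5.5, 5 mM DTT, 0.00005% Triton X-100. Reaction started with 2 uM Z-FR-AMC; AMC fluorescence increase over 60 s gives rate.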
Cruzain Triton = qHTS Assay for Promiscuous and Specific Inhibitors of Cruzain (with detergent); purified cruzain, Z-FR-AMC fluorescence, 0.01% Triton; Cruzipain (Trypanosoma cruzi), P25779; 200,000 tested, 0.43% active; Potency, µM, without a hit: max response, negative = inhibition, most hits filed as inhibitors; AID 1478, 2009;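 further: plate controls were neutral wells for no effect and buffer without enzyme for full effect; nearly all actives have a fitted effect of over 40% in size; top concentration of the series not given in the record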
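Steps: dispense cruzain (1.5 nM final) in acetate buffer pH 5.5 with DTT and 0.01% Triton X-100; pin-transfer compounds; incubate 15 min RT; add Z-FR-AMC (2 uM final); read fluorescence every 30 s, using the 60 s intensity change.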
SARS PLP yeast = qHTS of Yeast-based Assay for SARS-CoV PLP. S. cerevisiae expressing SARS-CoV PLpro, growth rescue; control for the full effect not named in the record. Potency, µM (top dose mostly 32.9 µM), for inactives: at the top dose activity, positive = growth rescue. 330,000 tested, 0.19% active; active means well fitted rising curve with a large enough effect; inconclusive means small, poorly fitted or top-dose-only effect; inactive means no such curve, though single readings can be large or run the other way; further: 0% is about no effect; nearly all actives have a fitted effect of over 55% in size; growth read by luminescence after 48 h
An asterisk follows results filed as active; ? = inconclusive; . = no result given; & = joins results of further samples; [ ] = another dose, or the depositor's remark. Unless noted, the call rests on the fitted dose curve; in most records, active means well fitted curve in the direction sought with a large enough effect; inconclusive means small, poorly fitted or top-dose-only effect, or another doubt; inactive means no such curve, though single readings can be large; an effect the other way counts as inactive or inconclusive. Potency means the concentration at half of the fitted maximal effect. Compounds as they come, and some 4.5% of all compounds hit somewhere here.

SMILES	NS1 function inh	Marburg entry inh	2A StopGo	RE007 growth inh	LASV entry inh	Cruzain noTriton	Cruzain Triton	SARS PLP yeast
COc1ccc(Cl)cc1C(=O)CSc1nc(N)cc(N)n1	-9%	-6%	-17%	1%	6%	-10%	0.0%	0%
COc1cc2c(C(=O)N3CCN(C)CC3)c(CSc3ccccc3)n(C)c2cc1Br	.	?	-20%	14%	?	.	.	-1%
Cc1ccc(NC(=O)CCNC(=O)c2ccccc2Cl)cc1S(=O)(=O)N(C)C	0%	1%	-12%	2%	5%	-12%	-0.9%	6%
CCCNC(=O)c1ccc(Cl)c(Cl)c1	-49%	-29%	-3%	?	1%	12%	1.8%	-7%
COc1cc(NC(=O)c2nc3ccccc3nc2N2CCCCC2)cc(OC)c1OC	.	-30%[46.1 µM]	60%[activator]	.	-2%[46.1 µM]	?	-7.1%	.
CCOc1ccc(N(CC(=O)Nc2ccc(C)cc2)S(=O)(=O)c2c(C)noc2C)cc1	3%	-5%	0%	18%	.	0%	-2.4%	-12%
COc1ccc(-c2[nH]nc3c2C(c2ccccc2OC(=O)N2CCOCC2)C(C#N)=C(N)O3)cc1 (configuration not stated)	-72%	1%&6%	8%	7%	-2%	?	1.3%	0%
Cc1ccn2cc(CNC(=O)c3cccs3)nc2c1	-5%	.	-11%	-12%	.	-7%	-5.3%	2%
O=C(CSc1nncc2ccccc12)N1CCOCC1	7%	-13%	.	13%	22%	0%	0.6%	4%
O=C(COC(=O)CCS(=O)(=O)c1ccccc1)Nc1cc(S(=O)(=O)N2CCCCC2)ccc1Cl	.	-10%	-1%	8%	?	.	.	.
CC(Oc1ccc(F)cc1)C(=O)Oc1ccc(N(C)S(=O)(=O)c2ccccc2)cc1 (configuration not stated)	.	11%	-10%	-9%	0%	.	.	0%
CC(=O)c1sc(-c2ccc(F)cc2)cc1NS(=O)(=O)c1ccccc1	4%	.	-6%	-2%	.	.	.	1%
Cc1nc(N2CCN(C(=O)c3ccco3)CC2)c2oc3ccccc3c2n1	-21%	?	?	3%	?	-1%	-7.6%	-3%
CC(C)[C@H](NS(=O)(=O)c1ccccc1)C(=O)OCn1nnc2ccccc2c1=O	-5%	1%	0%	1%	3%	-10%	-2.1%	0%
O=C(Nc1ccc(S(=O)(=O)N2CCCCC2)cc1)C1CCN(C(=O)c2ccco2)CC1	-2%	3%[46.1 µM]	-13%	4%	-16%	.	.	1%
CC1=CC(C)(C)N(C(=O)Nc2ccccc2)c2ccccc21	.	?	-8%	5%	10%	.	.	-2%
CCc1ccc(-n2cc(-c3ccc(F)cc3)[n+]3c2SCCC3)cc1	1%	?	-13%	2%	?	.	.	-5%
Cc1c(N(C)S(=O)(=O)c2cccc(C(=O)NCC3CCCO3)c2)c(=O)n(-c2ccccc2)n1C (configuration not stated)	.	?	-11%	11%	0%	.	.	1%
O=C1Cc2cc(S(=O)(=O)N3CCNCC3)ccc2N1	.	3%&3%	-5%	-16%	14%	.	.	-1%
S=C1NCN(Cc2ccccc2)CN1	6%	.	2%	10%	.	.	.	0%
Cc1cc(C)cc(NC(=O)CSc2nnc(Cc3cccn3C)n2-c2ccc(F)cc2)c1	-41%	0%	-9%	-13%	.	?	-9.9%	-9%
c1cc(-c2nc3cc(Cc4ccc5oc(-c6ccncc6)nc5c4)ccc3o2)ccn1	2%	.	.	.	.	-2%	3.1%	0%
CN(C)c1ccc(/C=C(/NC(=O)c2ccccc2)C(=O)N/N=C/c2ccc([N+](=O)[O-])c(O)c2)cc1	?	9%	?	-2%	?	?	-16%	-2%
NSc1nc(N)c2nc(-c3ccccc3)c(-c3ccccc3)nc2n1	19%	-16%[46.1 µM]	?	6%	-5%	.	.	0%
Cc1sc2ncnc(SCC(=O)N3CCCCC3)c2c1C	8%	1%[46.1 µM]	8%	10%	-10%[46.1 µM]	.	.	-1%

Given with values under each structure: part of the list above.
Values in the order: NS1 function inh	Marburg entry inh	2A StopGo	RE007 growth inh	LASV entry inh	Cruzain noTriton	Cruzain Triton	SARS PLP yeast
O=C1Cc2cc(S(=O)(=O)N3CCNCC3)ccc2N1
  .	3%&3%	-5%	-16%	14%	.	.	-1%
CCCNC(=O)c1ccc(Cl)c(Cl)c1
  -49%	-29%	-3%	?	1%	12%	1.8%	-7%
COc1ccc(Cl)cc1C(=O)CSc1nc(N)cc(N)n1
  -9%	-6%	-17%	1%	6%	-10%	0.0%	0%

(cont.)
SMILES	NS1 function inh	Marburg entry inh	2A StopGo	RE007 growth inh	LASV entry inh	Cruzain noTriton	Cruzain Triton	SARS PLP yeast
CCOc1ccccc1NC(=O)c1nnn(CC(=O)Nc2ccc(OC)c(OC)c2)c1N	.	.	3%	.	9%[46.1 µM]	3%	-2.4%	.
C[C@]12CCC(=O)C=C1C=CC1C2CC[C@@]2(C)C1CC[C@@H]2O (some centres not stated)	.	?	-24%	-17%	-1%[46.1 µM]	.	.	.
COC(=O)c1onc(-c2ccccc2)c1C(=O)OC	-10%	10%	-10%	-28%	7%	7%	1.1%	10%
CN1CCN(C(=O)C2CC(c3c(F)cccc3Cl)=NO2)CC1 (configuration not stated)	-1%	0%	.	-5%	16%	3%	1.2%	-4%
COC(=O)c1ccc(C(=O)OC)c(NC(=O)Nc2ccc3c(c2)OCO3)c1	-9%	1%	65%[activator]	7%	?	-5%	5.1%	-1%
COc1ccc(/C=N/NC(=O)c2ccccc2OC)cc1COc1ccc(C)cc1	7%	?	-26%	-6%	-20%	.	.	7%
Cc1ccc(NC(=O)/C(=C/c2cccc([N+](=O)[O-])c2)NC(=O)C2CCCCC2)cc1	1%	-2%	35%[activator]	-9%	17%	-2%	0.3%	-2%
CCN1CCN(c2cc(=O)n3ccccc3n2)CC1	-11%	0%[46.1 µM]	19%	-32%	.	.	.	2%
O=C(NCCCN1CCOCC1)c1cc(C(=O)C2CCCCC2)c[nH]1	.	-2%[46.1 µM]	8%	-21%	-4%	.	.	2%
COc1ccccc1/C=N/Nc1cc(C)nc(N2CCOCC2)n1	-4%	.	-9%	-4%	.	.	.	1%
O=C(COc1ccccc1)NCC(=O)N/N=C/c1ccc(O)cc1O	-1%	-16%[46.1 µM]	-8%	1%	-6%	.	.	-1%
COc1ccccc1NC(=O)CN1CCN(CC(=O)Nc2ccc(Cl)c(C(F)(F)F)c2)CC1	-36%	?	?	46%	?	28%	-7.9%	-24%
COc1ccc(-c2ccc(CCC(=O)O)n2CC(=O)Nc2ccccc2C)cc1	4%	-15%[46.1 µM]	-6%	3%	-4%	.	.	-3%
Cc1ccc(Cn2cc(S(=O)(=O)c3ccc(Cl)cc3)c(=O)c3cc(F)ccc32)cc1	-1%	?	-10%	11%	-18%	?	0.4%	4%
C1CCN=C(Nc2nn[nH]n2)CC1	-4%	19%	15%	7%	3%	-5%	-1.8%	3%
Cn1c(=O)c2[nH]c(CCNC(=O)c3ccccc3)nc2n(C)c1=O	3%	-3%[46.1 µM]	-10%	11%	2%[46.1 µM]	4%	8.3%	.
CC1CC2OC(=O)C3(C)CCCC(C)(C23)C1(O)CCc1ccoc1 (configuration not stated)	1%	1%[46.1 µM]	?	-5%	-12%	.	.	-1%
CCOc1ccc(NS(=O)(=O)c2ccc(C(=O)N(C)C)s2)cc1	.	.	-23%	.	-19%[46.1 µM]	-7%	2.1%	.
Cc1ccc(OC(C)C(=O)Nc2cc(C)on2)cc1 (configuration not stated)	-9%	24%[46.1 µM]	-16%	10%	24%[46.1 µM]	.	.	0%
COc1ccccc1OCCn1cc(/C=N/NC(=O)c2ccncc2)c2ccccc21	-26%	7%	?	4%	?	.	.	13%
COc1ccc(NC(=O)CCCCC#Cc2ccccc2)cc1	.	.	-3%	-7%	.	-5%	-3.7%	.
COC(=O)c1c(NC(=O)/C=C/c2ccc(OC)c(OC)c2)sc2c1CCC2	.	.	-12%	.	8%[46.1 µM]	1%	0.3%	.
O=C(O)CCCNC(=O)OCc1ccccc1	-1%	3%	-15%	10%	-11%	6%	3.8%	-4%
Cc1ccc(C(=O)Oc2cc(N)n(S(=O)(=O)c3ccc(F)cc3)n2)cc1	15%	12%[46.1 µM]	-2%	-5%	-3%	.	.	0%
COc1ccc(CC(NC(C)=O)C(=O)NC2CCN(S(=O)(=O)c3ccc(NC(C)=O)cc3)CC2)c(OC)c1 (configuration not stated)	9%	-6%[46.1 µM]	-4%	20%	8%[46.1 µM]	.	.	-6%

More entries
SMILES	NS1 function inh	Marburg entry inh	2A StopGo	RE007 growth inh	LASV entry inh	Cruzain noTriton	Cruzain Triton	SARS PLP yeast
N#Cc1ccccc1OCC(=O)NCC1(N2CCCCC2)CCCCC1	-3%	-17%[46.1 µM]	3%	-27%	10%[46.1 µM]	.	.	-3%
CC(C)[C@H](NC(=O)OCc1ccccc1)C(=O)OCC(=O)N1CCN(c2ccccc2)CC1	.	11%	0%	-12%	?	.	.	4%
COc1ccc2c(c1)N1CCN=C1N2C	2%	-2%	-25%	21%	16%	8%	-2.8%	1%
Cc1cc(NC(=O)CO/N=C/c2ccc3c(c2)OCO3)ccc1Br	6%	.	-13%	-14%	.	.	.	0%
C=CCOC(=O)/C(=C\c1cccc2ccccc12)NC(=O)c1ccccc1	-26%	-1%	25%	-25%	8%	-3%	-9.9%	-3%
CCCC(c1nnnn1Cc1ccc(F)cc1)N1CCN(C)CC1 (configuration not stated)	7%	17%	-12%	-25%	-9%[46.1 µM]	.	.	-1%
